GLA inh pH 4.5 – inhibitors of human alpha-galactosidase A at pH 4.5 | P06280 | purified enzyme, 4-MU-alpha-Gal fluorescence, pH 4.5 | activity change, negative = inhibition, % at 105 µM | 230,000 tested, under 10 active | AID 1467; inconclusive = small, poorly fitted or top-dose-only inhibition, or a rising curve; inactive = flat fitted curve, though single readings scatter; no compound was filed as active;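 also: 0% = full activity with enzyme and -100% = basal without enzyme; dose as in the result columns while the protocol names 77 µM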
Rango dissoc inh – inhibitors of RanGTP-induced Rango-importin beta complex dissociation; O95149+P62826; Potency, µM (top dose mostly 46.1 µM), inactives show at the top dose activity change, negative = inhibition; AID 540253; 340,000 tested, 0.071% active; Biochemical FRET Rango-importin beta, RanGTP-induced dissociation; active means falling FRET ratio curve, often poorly fitted, with flat reads before Ran was added; inconclusive means other falling curves, or compound fluorescence or quenching; inactive means flat or rising ratio curve;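 also: potency is read from the fitted curve at half-maximal effect; % of control where 0% means no effect; nearly all actives have a fitted effect of over 45% in size; -100% = wells without RanGTP and RCC1; the record marks most hits as doubtful in a second field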
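Rango FRET biosensor (snurportin-1 IBB flanked by N-terminal EYFP and C-terminal CFP10) at 0.1 uM, with 0.25 uM importin beta in PBS, 1mM DTT, 0.02% Tween-20, 0.1% BSA. 0.6 uM Ran, 2mM GTP and 0.2 uM RCC1 were then added for 45 min at room temperature. Inhibition read as loss of FRET rise.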
miR-21 FLuc – miR-21 reporter, rising signal; HeLa miR-21 FLuc reporter, luciferase, 48 h; Potency, µM (top dose mostly 38.3 µM), for the others: at the top dose reporter change, positive = more light; 340,000 tested, under 10 active; AID 2288; active = well fitted rising curve with a large enough effect; inconclusive = small, poorly fitted or top-dose-only effect; inactive = no such curve, though single readings can be large or run the other way;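 also: % of control where 0% means no effect; miR-21 action dims this reporter so a rising signal means less miR-21 action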
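HeLa miR-21-FLuc reporter line, endogenous miR-21; 2000 cells/well in DMEM/10% FBS; compound titration up to ~40uM final, 48 h, 37 degree Celsius; luciferase detection reagent, 15 min lysis, CCD luminescence.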
Rango complex inh – inhibitors of Rango-importin beta complex formation. AID 540263. 340,000 tested, 0.031% active. Potency, µM (highest dose often 92.2 µM), inactives show at the highest dose inhibition of complex formation. Rango CFP/YFP FRET sensor + importin beta, 45 min. Q14974; active = rising FRET ratio curve, often small or poorly fitted; inconclusive = mostly compound fluorescence or quenching in the first reads; inactive = flat curves in all reads;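 also: potency is read from the fitted curve at half-maximal effect; 0% = DMSO wells and 100% = buffer wells lacking importin beta; nearly all actives have a fitted effect of over 15% in size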
Target sequence (Q14974 whole entry, looked up): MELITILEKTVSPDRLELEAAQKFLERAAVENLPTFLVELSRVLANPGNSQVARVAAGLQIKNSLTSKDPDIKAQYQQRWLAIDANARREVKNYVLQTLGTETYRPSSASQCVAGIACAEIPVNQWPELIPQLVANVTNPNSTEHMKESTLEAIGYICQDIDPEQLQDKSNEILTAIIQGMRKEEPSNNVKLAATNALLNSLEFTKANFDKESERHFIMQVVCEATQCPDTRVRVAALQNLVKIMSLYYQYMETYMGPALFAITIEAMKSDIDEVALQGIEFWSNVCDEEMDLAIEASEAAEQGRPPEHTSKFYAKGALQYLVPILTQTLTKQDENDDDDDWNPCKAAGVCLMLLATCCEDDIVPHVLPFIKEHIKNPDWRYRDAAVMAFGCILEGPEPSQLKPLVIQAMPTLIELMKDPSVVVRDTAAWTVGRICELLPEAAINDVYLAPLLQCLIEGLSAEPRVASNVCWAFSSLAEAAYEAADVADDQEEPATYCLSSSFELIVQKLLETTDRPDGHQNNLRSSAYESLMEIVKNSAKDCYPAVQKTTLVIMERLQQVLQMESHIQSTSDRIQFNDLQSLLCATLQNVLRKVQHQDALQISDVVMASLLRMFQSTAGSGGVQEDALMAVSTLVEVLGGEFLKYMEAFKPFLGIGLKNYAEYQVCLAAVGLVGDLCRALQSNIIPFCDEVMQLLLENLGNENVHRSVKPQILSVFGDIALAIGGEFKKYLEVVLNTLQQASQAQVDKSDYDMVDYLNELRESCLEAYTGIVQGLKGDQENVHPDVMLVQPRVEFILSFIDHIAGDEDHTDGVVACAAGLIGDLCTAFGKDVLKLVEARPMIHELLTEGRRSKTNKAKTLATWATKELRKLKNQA
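FRET biosensor Rango (snurportin 1 IBB between N-terminal EYFP and C-terminal Cerulean), 50 nM in PBS/1 mM DTT/0.02% Tween-20/0.1% BSA, preincubated 5 min RT with compound; 0.125 microM importin beta added, 45 min RT, CFP/YFP FRET ratio read.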
* marks the source's active call; other numbers are inactive results; ? = inconclusive; nt = not tested or not shown; & = joins results of further samples.

structure | GLA inh pH 4.5 | Rango dissoc inh | miR-21 FLuc | Rango complex inh
O=C1CCN(C(=O)CCCn2c(=O)oc3ccccc32)CC1 | -8.9 | -31.8% | -11.5% | 7.5%
O=C1NC(=O)C(=Cc2csc3ccccc23)C(=O)N1 | -5.9 | -7.8% | -3.4% | -0.3%
CCN1CCN(C(c2cccs2)C(C)NC(=O)Oc2ccccc2)CC1 (stereo not drawn) | 8.7 | ? | -4.5% | -1.8%
CCOc1ccccc1Oc1coc2cc(OC(=O)N(C)C)ccc2c1=O | nt | 1.6% | -43.4% | -0.4%
NP(=O)(OCCCc1ccccc1)Oc1ccccc1 (stereo not drawn) | nt | -10.4% | -3.6% | -3.0%
CN(C)C(=O)Oc1cccc(NC(=O)N2CCOCC2)c1 | 3.4 | 6.3% | -8.9% | -1.0%
CCOC(=O)C(O)(c1ccc(N(CC)S(=O)(=O)c2ccc(C)cc2)cc1)C(F)(F)F (stereo not drawn) | 0.3 | -8.1% | -0.9% | 3.2%
CCOC(=O)c1cc2c(cn1)[nH]c1ccccc12 | nt | 0.8% | -35.7% | 0.0%
CN(CCOc1ccc(C=C2C(=O)NC(=O)NC2=O)cc1)c1ccccn1 | -5.4 | 13.5% | -28.7% | 2.0%
CCN1CCN(Cc2cc(OC)c(OC)cc2[N+](=O)[O-])CC1 | -8.0 | 1.0% | 0.8% | 0.3%
COc1ccc(N=Cc2c(O)n(C)c(=O)n(C)c2=O)cc1 | nt | 5.7% | -12.9% | -4.8%
COC(=O)C1=C(c2ccccc2OCc2ccccc2)C[C@@H]2CC[C@H]1N2C(=O)NCCCOC(C)C | nt | -5.5% | nt | 0.3%
CCOCN(C(=O)CCl)c1c(C)cccc1CC | 5.0 | -13.1% | nt | -1.5%
CN(C)CCOC(=O)c1cn(Cc2ccccc2)c2ccccc12 | 2.1 | -2.1% | -1.5% | -1.9%
Cn1c(=O)cc(SCC(=O)N2CCC3(CC2)OCCO3)c2ccccc21 | 0.1 | -6.7% | 0.1% | ?
COC(=O)C1=C(c2c(C)noc2C)C[C@@H]2CC[C@H]1N2C(=O)NCc1ccc(C(F)(F)F)cc1 | nt | -4.9% | nt | -3.2%
S=P(N1CCOCC1)(N1CC1)N1CC1 | nt | -15.3% | nt | 0.3%
Cc1ccc(-n2c(O)c(C=NCc3cccnc3)c(=O)[nH]c2=O)cc1C | -1.4 | 0.9% | -1.7% | -0.5%
CCC(C)(O)C(=O)OC1C(=O)OC2CC3C(C)=CC(=O)C(O)C3(C)C3C4(O)OCC23C1C(C)C4O (stereo not drawn) | nt | 0.0% | nt | 1.1%
O=c1[nH]c(=S)[nH]c(O)c1N=Nc1ccc(OC(F)F)cc1 | -3.6 | 2.2% | -34.7% | 1.8%
S=C(NC1CCCCC1)N1CCC(c2cnc[nH]2)CC1 | -0.5&-2.4 | 2.2% | nt | -1.0%
Cc1cccc(C(=O)Nc2ccc(Cl)cc2C(=O)c2ccccc2)c1 | 5.3 | -7.8% | -7.3% | 5.3%
c1ccc2c(CNC3CCCCC3)c[nH]c2c1 | 0.5 | 1.5% | 9.2% | -0.9%
O=P(c1ccccc1)(c1nc2ccccc2s1)N1CCOCC1 (stereo not drawn) | 7.3 | 9.1% | 2.0% | 1.7%
C=CCn1c(O)c(/C=C2/C=CC=N2)c(=O)[nH]c1=O | 2.0 | -10.2% | 27.5% | 0.2%
CC12C=CC(=O)C=C1CCC1C2C(=O)CC2(C)C(=O)CCC12 (stereo not drawn) | nt | 4.7% | nt | -3.2%
CCOC(=O)c1c(C)c(P(=S)(N2CCOCC2)N2CCOCC2)n(C)c1C | 0.5 | -0.4% | -6.1% | -2.1%
CCN(N=Nc1nonc1OC)c1nonc1OC | 0.2 | 1.7% | -8.3% | 0.7%
CCOC(C(=O)OCC(O)CN(CC)CC)(c1ccccc1)c1ccccc1 (stereo not drawn) | -3.1 | -17.9% | -0.8% | 2.4%
CC(=O)O[C@H]1CC[C@@]2(C)[C@H](C1)C(=O)C[C@H]1[C@@H]3CC[C@@H]4[C@@H](CN5C[C@@H](C)CC[C@H]5[C@@]4(C)O)[C@@H]3C[C@@H]12 | nt | 3.7% | -5.9% | 6.0%

Entries listed so far with a CF3 group:
structure | GLA inh pH 4.5 | Rango dissoc inh | miR-21 FLuc | Rango complex inh
CCOC(=O)C(O)(c1ccc(N(CC)S(=O)(=O)c2ccc(C)cc2)cc1)C(F)(F)F (stereo not drawn) | 0.3 | -8.1% | -0.9% | 3.2%
COC(=O)C1=C(c2c(C)noc2C)C[C@@H]2CC[C@H]1N2C(=O)NCc1ccc(C(F)(F)F)cc1 | nt | -4.9% | nt | -3.2%

The list goes on.
structure | GLA inh pH 4.5 | Rango dissoc inh | miR-21 FLuc | Rango complex inh
CCN1CCN(C(=O)Cc2coc3cc(C)cc(C)c23)CC1 | 3.9 | -2.6% | -9.7% | 1.8%
c1ccc(C(c2ccccc2)c2ccncc2)cc1 | nt | 6.1% | nt | -2.1%
CC(=O)CC(c1ccccc1[N+](=O)[O-])c1c(O)c2ccccc2oc1=O (stereo not drawn) | -2.0 | 31.5% | 1.4% | 0.2%
COc1ccccc1N1CCN(Cc2cccc(Br)c2)CC1 | nt | 3.4% | 13.3% | 1.8%
COC(=O)C1=C(N)OC(C)=C(C(C)=O)C12C(=O)N(C)c1ccccc12 (stereo not drawn) | 8.7 | -3.4% | 5.5% | -0.4%
C[C@H]1[C@@H](c2ccccc2)O[C@@H](c2ccccc2Br)N1C | nt | 8.1% | nt | 3.9%
COc1ccc(NC2=NCCCS2)cc1OC | nt | 8.4% | -5.1% | ?
COc1cccc(C2C([N+](=O)[O-])=C(N)Oc3c2c(=O)oc2ccccc32)c1 (stereo not drawn) | -3.4 | 0.1% | 0.4% | 1.8%
COc1ccc(-c2cc(C(=O)N3CCC4(CC3)OCCO4)c3ccccc3n2)cc1 | nt | 9.5% | -18.4% | 0.4%
CSc1ccc(CN2CCN(C(=O)COc3ccc(C)cc3)CC2)cc1 | 2.7 | 0.5% | 13.6%&15.7% | ?
CN1C(=O)N(C)C(=O)C(NS(=O)(=O)c2ccc(N)cc2)(c2ccccc2)C1=O | nt | 5.4% | nt | -0.9%
COc1cc(C(=O)N2C[C@H]3C[C@@H](C2)c2cccc(=O)n2C3)cc(OC)c1OC | nt | 8.3% | -0.2% | 0.6%
COC(=O)C1=C(c2cccc(OC)c2OC)C[C@@H]2CC[C@H]1N2C(=O)NCCNC(C)=O | nt | -7.4% | nt | -0.4%
CSc1ccc(CN2CCN(Cc3ccccc3Cl)CC2)cc1 | -3.6 | -9.0% | 11.6% | 0.7%
Cc1cc(Cl)ccc1OCC(=O)O | -0.1 | 3.5% | -3.8% | -3.1%
O=P(O)(O)Cc1c(Cl)cccc1Cl | -2.3 | 5.7% | -8.7% | -1.9%
COc1ccc(C(=O)O)cc1OC | 3.9 | -0.5% | nt | -0.7%
O=C1NC(=O)N(CCC2=CCCCC2)C(=O)/C1=C/c1cccs1 | -2.6 | -10.1% | 0.6% | ?
COc1ccc(C(=O)C2CCCN(Cc3ccc(C)s3)C2)cc1OC (stereo not drawn) | -18.1 | -1.4% | -0.2% | -0.2%
CN1CCN(c2ccc3c(c2)S(=O)(=O)c2ccccc2C3=O)CC1 | nt | ? | nt | ?
COc1ccc2[nH]c(C)c(CCNCc3cc(OC)c4c(c3)OCO4)c2c1 | nt | -11.9% | nt | 0.3%
COC(=O)C1=C(c2cccc(OCc3ccccc3)c2)C[C@@H]2CC[C@H]1N2C(=O)NCCOc1ccccc1 | nt | 15.3% | nt | -0.4%
O=c1[nH]oc2c1CCNC2 | -0.4&-5.1&0.6&-2.6 | -23.3% | nt | -1.2%
Cn1cc(CCC(=O)N2CCC3(CC2)OCCO3)c2ccccc21 | -4.1 | 3.7% | -7.1% | 0.6%
C=CCn1c(O)c(C(C)=NCCO)c(=O)[nH]c1=O | -5.1 | 19.5% | 1.7% | 6.1%
C/C(=N\NC(=O)c1ccncc1)c1c(O)n(Cc2ccccc2)c(=O)[nH]c1=O | -17.7 | ? | 3.7% | ?
CC1(C)C(C(=O)NN2C(=O)c3ccccc3C2=O)C1(C)C | 5.6 | 2.5% | 0.9% | 2.4%
CCCN(CCC)C1CCc2cccc(O)c2C1 (stereo not drawn) | -3.8 | 0.5% | nt | -0.7%
O=C(O)c1ccccc1NC(=O)N1C[C@H]2C[C@@H](C1)c1cccc(=O)n1C2 | nt | 14.4% | 0.8% | 4.4%
CC(C)OC1CCCC(O)C1CC(=O)O (stereo not drawn) | 2.7 | 7.1% | -2.2% | 3.8%
N=c1sccn1Cc1ccc(Cl)cc1Cl | -0.1 | 5.3% | 0.8% | -0.8%
Oc1ccc2c3c1O[C@H]1[C@@H](O)CC[C@@]4(O)[C@@H](C2)N(CC2CCC2)CC[C@]314 | nt | 11.9%&-14.9% | nt | -3.2%&-0.1%
O=Cc1cn(Cc2cccc([N+](=O)[O-])c2)c2ccccc12 | -1.4 | -2.5% | 24.1% | 0.5%
CCOC(=O)[C@]12Cc3c(cc(OC)c(OC)c3OC)[C@H]1N(Cc1ccccc1)C(=O)c1ccccc12 | nt | 1.7% | nt | -1.0%
O=C(CN1CCOCC1)c1ccc(Br)cc1 | nt | -2.4% | -0.6% | -1.8%
CC1CN(O)C2CCc3c(no[n+]3[O-])C12O (stereo not drawn) | 2.7 | -0.8% | -10.0% | 0.5%
Ic1ccccc1CN[C@@H]1C2CCN(CC2)[C@@H]1C(c1ccccc1)c1ccccc1 | nt | -18.7% | nt | -0.9%
O=c1c2ccccc2[nH]c(=S)n1-c1ccc(Br)cc1 | 0.8 | 0.9% | -10.5% | 0.5%
O=C1NC(=O)C(C2CCCCCC2)C(=O)N1 | nt | 18.8% | nt | 0.3%
O=C(N/N=C/c1ccccc1OC(=O)N1CCOCC1)c1cccs1 | -2.6 | -10.0% | -49.7% | 0.3%
COc1ccc(CN2Cc3cnnn3-c3ccccc3C2C#N)cc1 (stereo not drawn) | nt | -3.1% | nt | -0.5%
C/C=C1/C[N+]2(C)CCC34C(=C(C=O)[C@H]1C[C@@H]32)Nc1ccccc14 (stereo partly drawn) | nt | -6.7% | nt | 4.4%
CCN(CC)c1ccc(/C=N/c2sc3c(c2C#N)C2CCN3CC2)c(O)c1 | 3.1 | ? | -12.0% | ?
COC(=O)Nc1ccc(N=C(N)N[N+](=O)[O-])cc1 | 0.8 | 2.8% | -0.4% | -0.7%
CC(NCc1ccccc1C(F)(F)F)C(O)c1ccccc1 (stereo not drawn) | 1.3 | 5.0% | -15.7% | -1.4%
Oc1ccc(/C=N/NP(=S)(c2ccccc2)c2ccccc2)cc1O | -26.8 | -15.4% | -7.2% | -5.9%
N#CCCn1cc(C(=O)Nc2ccccc2Br)c(-c2ccc([N+](=O)[O-])cc2)n1 | 0.3 | -1.5% | -3.4% | -0.1%
COc1ccccc1-n1c(-c2ccccc2Br)nc2ccccc2c1=O | nt | -16.4% | 3.0% | 3.7%
COc1ccc(Cl)cc1N=Cc1c(O)n(C)c(=O)n(C)c1=O | nt | -12.8% | -1.4% | 4.5%
NC1=NC(=O)N2CC12 (stereo not drawn) | nt | -3.1% | nt | 1.7%
O=C(CN1CCOCC1)NCC(=O)Nc1ccc(Br)cc1C(=O)c1ccccc1 | -4.1 | 0.1% | -0.1% | 0.1%
CCOc1ccc(-n2c(O)c(C=Nc3ccc(N(CC)CC)cc3)c(=O)[nH]c2=O)cc1 | -7.2 | ? | 0.9% | 3.5%
COc1ccc(CNCCc2ccc3c(c2)OCO3)c(OC)c1OC | nt | -15.4% | -5.6% | 0.2%
CC(C)c1ccc(NC(=O)N2C[C@H]3C[C@@H](C2)c2cccc(=O)n2C3)cc1 | nt | ? | -0.9% | -0.6%
CCC1(O)CCC2C3CCC4=CC(=O)CCC4C3CCC21CC (stereo not drawn) | nt | 15.0% | nt | -1.8%
CCCCCn1c(=O)c(C(=O)Nc2cccc(C)n2)c(O)c2ccccc21 | nt | 2.9% | -1.4% | 0.6%
COc1ccccc1OCCCn1cc(C(=O)C2CC2)c2ccccc21 | -1.9 | 1.1% | 0.0% | 3.8%

Compound activity deposited in PubChem BioAssay by National Center for Advancing Translational Sciences (NCATS).

An excerpt; the hit share may differ from the screen's.
